# Compound activity from PubChem BioAssay.
# gsp ag – agonists of gsp mutant (McCune-Albright syndrome); gsp mutant cells, cAMP HTRF, 30 min; control for the full effect not named in the record; Potency, µM (titrated, usually from 76.9 µM), inactives show top-dose activation (cAMP increase), usual class: activators; hit rate 0.13% among 340,000; AID 624287; active = well fitted activation curve with a large enough effect; inconclusive = small, poorly fitted or top-dose-only effect, or another doubt; inactive = no such curve, though single readings can be large or run the other way; cell line not stated here;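 also: phosphodiesterase inhibitor Ro 20-1724 added with compounds to block cAMP breakdown; potency is read from the fitted curve at half-maximal effect; nearly all actives have a fitted effect of over 60% in size; about a fifth of the inactives were tested at one dose only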
#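 Cells stably selected in G418 were plated at 2000/well, grown 16-24 hr, then given compounds in DMSO with the PDE inhibitor […] (300 uM solution added) for 30 min at 37C; cAMP was read by HTRF.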
# gsp antagonist – gsp mutant antagonism | gsp-mutant cells, cAMP HTRF, 30 min; control for the full effect not named in the record | Potency, µM (titrated, usually from 76.9 µM), for the others: at the highest dose activity change, negative = inhibition, actives largely listed as inhibitors | hit rate 0.4% among 340,000; active = falling curve of any shape with a large fitted effect; inconclusive = falling curve, mostly with a smaller effect; inactive = flat or rising curve; cell line not stated here;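 also: intracellular cAMP measured with PDE inhibitor Ro 20-1724 present during compound exposure; potency is read from the fitted curve at half-maximal effect; % is scaled to controls: 0 for no effect and ±100 for the full control effect; nearly all actives have a fitted effect of over 65% in size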
#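 Cells in G418 medium, seeded 16-24 h, 37C; buffer exchange to DPBS + 1 mM CaCl2, 0.5 mM MgCl2, 0.05% BSA; cpds in DMSO + […] (300 uM stock), 30 min 37C; HTRF cAMP detection.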
# D2 potentiator – positive allosteric modulators of human D2 dopamine receptor; P14416; DiscoveRx D2 beta-arrestin cells, luminescence, 90 min; 100% = 57 uM dopamine signal; potentiation, % (concentration not given with the values); hit rate 0.23% among 360,000; AID 624464; active = potentiation of 50% or more; inconclusive = 30% to 50%; inactive = 30% or less;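 also: compound concentration not given in the record; tested on top of an EC20 dose of dopamine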
# Target sequence (P14416 whole entry, looked up): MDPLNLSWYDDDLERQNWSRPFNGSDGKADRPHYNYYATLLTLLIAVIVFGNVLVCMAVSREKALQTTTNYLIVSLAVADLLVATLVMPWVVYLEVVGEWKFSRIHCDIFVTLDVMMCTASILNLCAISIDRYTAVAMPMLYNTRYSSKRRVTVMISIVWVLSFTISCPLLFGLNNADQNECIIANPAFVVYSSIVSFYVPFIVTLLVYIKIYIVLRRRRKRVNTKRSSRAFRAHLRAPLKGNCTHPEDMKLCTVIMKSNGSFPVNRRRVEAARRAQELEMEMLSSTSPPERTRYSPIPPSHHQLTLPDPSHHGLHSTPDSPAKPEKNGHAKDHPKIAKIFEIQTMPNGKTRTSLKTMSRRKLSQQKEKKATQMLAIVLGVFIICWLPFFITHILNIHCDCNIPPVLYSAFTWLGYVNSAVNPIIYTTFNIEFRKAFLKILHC
#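 PathHunter beta-arrestin assay in DiscoveRx D2 cells. Compounds were added with an EC20 of dopamine (50 nM final) for 90 min at 37 deg C. Luminescence was read 1 h after detection reagent, with 57 uM dopamine as the EC100 control.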
# D2 agonist – human D2 receptor agonism in beta-arrestin assay; AID 624465; P14416; activation, % (no concentration beside the values); hit rate 0.084% among 360,000; DiscoveRx PathHunter D2 beta-arrestin, luminescence, 90 min; 100% = 57 uM dopamine signal; in the data active = activation above about 40%; inconclusive = about 15% to 40%; inactive = below about 15%; also: compound concentration not given in the record; the text of the record calls up to 30% inactive
#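 DiscoveRx PathHunter D2 beta-arrestin cells (2,100/well) attached overnight, then compound-stimulated 90 min at 37 C in HBSS/10 mM HEPES/0.1% Tween-20 buffer; beta-galactosidase complementation read by luminescence after 1 h at ambient temperature. Dopamine 57 uM final (EC100) as control.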
# CtBP-E1A blk – blocks the CtBP interaction with E1A | AID 651724 | activity change, % (test concentration not listed) | hit rate 0.49% among 340,000 | AlphaScreen GST-E1A/His-CtBP binding, 1536-well; hits give low values; control for the full effect not named in the record; in the data active means activity change below about -65%; inconclusive means about -30% to -65%; inactive means above about -30%; also: % is scaled to controls: 0 for no effect and ±100 for the full control effect; compound concentration not given in the record
#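 GST-E1A and His-tagged CtBP (125 nM each as 5X stock) were preincubated with pin-transferred compound for 2 h at 37 °C in the dark, then glutathione donor and nickel acceptor beads were added for 1 h before AlphaScreen reading.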
# Six1-Eya2 blk – blocks human Six1 binding to Eya2; Q15475+O00167; AlphaScreen GST-Six1/His-Eya2 binding, biochemical; hits give low values; control for the full effect not named in the record; activity change, % (no concentration beside the values); hit rate 0.56% among 360,000; in the data active = activity change below about -65%; inconclusive = about -30% to -65%; inactive = above about -30%; also: % is scaled to controls: 0 for no effect and ±100 for the full control effect; compound concentration not given in the record
#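 Compounds are tested against tagged Six1 and Eya2 proteins bridged by glutathione donor and nickel acceptor beads; after a one-hour incubation at 37 °C without light, AlphaScreen emission is recorded.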
# An asterisk follows results filed as active; ? = inconclusive; · = no result given; [ ] = another dose, or the depositor's remark.
compound	gsp antagonist	Six1-Eya2 blk	CtBP-E1A blk	D2 agonist	gsp ag	D2 potentiator
Cc1ccc2nc(SC(C(=O)Nc3ccc(F)cc3)c3ccccc3)[nH]c2c1 (configuration not stated)	-44%	-3	-6	-2.0	-6%	5
COc1cc(CC(=O)OCC(=O)NC2CC2)cc(OC)c1OC	12%	-2	0	-2.5	-1%[15.4 µM]	-4
O=C(OCCC1Oc2cccnc2NC1=O)c1ccc(F)cc1 (configuration not stated)	0%	-14	0	0.2	-15%[15.4 µM]	4
Cc1cccc(C)c1N=Nc1c(C)cc(O)cc1C	-4%	?	?	1.1	-9%[15.4 µM]	-22
CN(C)c1cccc2c1c(NC(=O)c1ccc(F)cc1)nn2C	-12%	6	5	2.7	-15%	4
CCOC(=O)/C(=C/C=C1\Sc2cc(OCC)c(OCC)cc2N1CC)C(C)=O	?	?	?	1.8	-19%	-7
O=C(Nc1cccc2c1CCCC2)c1cc(C2CCCCN2C(=O)c2cccs2)on1 (configuration not stated)	·	-7	-4	-2.2	·	-2
O=C(NCC[C@@H]1C[C@@H]2C=C[C@H]1C2)c1cc(COc2ccc(F)cc2F)on1	6%	11	16	-3.9	-3%	-24
CC(=O)C1=C(C)N(Cc2ccco2)C(=O)C1(NC(=O)C1CCCCC1)C(F)(F)F (configuration not stated)	-6%	7	1	-1.5	1%	-2
COc1ccc(OC)c(Nc2nc(N)c([N+](=O)[O-])c(N3CCOCC3)n2)c1	-2%	?	·	4.9	8%	-5
Cc1ccc2nc(SCC(=O)NCc3ccc(F)cc3)nc(=O)n2c1	13%	5	13	-1.2	?	6
Cc1c(CCC(=O)N[C@@H](C)C(=O)O)c(=O)oc2c(C)c3oc4c(c3cc12)CCCC4	-11%	-18	·	-0.7	?	-2
COCC(=O)Nc1nc2ccc(S(C)(=O)=O)cc2s1	10%	4	5	-1.9	-10%	13
CC1CC(C)CN(Cc2nc(N)nc(Nc3ccccc3)n2)C1 (configuration not stated)	2%	-5	-4	-0.7	0%	-12
O=c1c2ccccc2sc2ccccc12	-11%	-9	?	-1.0	3%[15.4 µM]	-27
COc1ccc(/C=C/C(=O)NNC(=O)c2cc(C)oc2C)cc1	5%	-1	-8	-1.0	-1%[15.4 µM]	4
COc1ccc(OC)c(NC(=O)NNS(=O)(=O)c2ccc(C)cc2C)c1	5%	-10	-1	-0.3	-39%[inhibitor]	6
CCCS(=O)(=O)N1CCC(C(=O)NC2CCC(C)CC2)CC1 (configuration not stated)	-6%	12	3	-4.6	0%	3
CCOc1ccc(/C=C2\SC(=O)N(CCNC(=O)CN3C(=O)NC4(CCCC4)C3=O)C2=O)cc1OC	-15%	2	2	0.8	-10%	-14
COC(=O)c1ccccc1NC(=O)COc1ccc(S(=O)(=O)NC(C)C)cc1	?	-7	·	-1.4	-34%[inhibitor]	-1
Cc1cccnc1NC(=O)c1ccc(NS(=O)(=O)/C=C/c2ccccc2)cc1	10%	-3	-1	-3.0	17%	5
Cc1cc2c(SCC(=O)NC3CCCC3)ncnc2s1	4%	0	2	-2.1	-18%[15.4 µM]	-2
Cc1ccc(C(C)C)c(OCC(=O)NCC(c2cccs2)N2CCOCC2)c1 (configuration not stated)	35µM*	-10	0	1.4	-23%[15.4 µM]	-3
CC1=C(C(=O)Nc2ccccn2)C(c2ccc(Cl)cc2Cl)NC(=S)N1 (configuration not stated)	8%	-14	-6	0.1	13%[15.4 µM]	0
COc1ccc(/C=N/Nc2nc(Nc3ccccc3)nc(N3CCCCC3)n2)cc1OC	?	-14	-6	-5.3	-5%	6
COC(CN(C(=O)CCl)C(C(=O)NC1CCCCC1)c1ccc(Cl)cc1)OC (configuration not stated)	-4%	4	6	-2.8	-12%	-22
CN(CC(=O)Nc1ccc(F)c(F)c1F)C(=O)/C=C/c1ccc(Cl)cc1	4%	1	-5	-2.7	-46%[inhibitor]	-20
CC(=O)c1ccc(OCc2cc(C(=O)N3CCC[C@H]3CO)no2)cc1	2%	2	-11	1.5	-14%	4
COc1ccc(Cl)cc1NC(=O)Cn1nnc(C(=O)NCCc2ccc(OC)c(OC)c2)c1N	-2%	-2	·	-9.8	-37%[inhibitor]	-16
COC(=O)c1cc(Cl)c(NC(=O)C(C)C)cc1OC	9%	-2	1	-5.5	5%[15.4 µM]	-2
CC(C)CC(c1nnnn1CCc1ccccc1)N1CCC(C(N)=O)CC1 (configuration not stated)	-13%[15.4 µM]	8	-4	-2.8	0%	-6
CC(C)N(C(=O)COC(=O)c1cccc(N(C)C)c1)c1ccccc1	-2%	-21	-14	-1.1	-13%[15.4 µM]	-2
CCSc1nnc2c(n1)OC=Nc1ccc(Br)cc1-2	-6%[15.4 µM]	-2	0	-2.5	16%	2
O=C1NCCN/C1=C\C(=O)c1ccc(Br)cc1	-2%	-2	·	-5.7	-52%	-19
COc1ccc(S(=O)(=O)N2CCOCC2)cc1NC(=O)c1ccc2c(c1)OCO2	9%	-1	0	-1.1	?	-4
Cc1ccc2ccc(C(Nc3ccccn3)c3ccccc3)c(O)c2n1 (configuration not stated)	-10%	-2	-5	-8.5	-28%	-9
O=C1CN(C(=O)c2ccccc2F)c2ccccc2N1	4%	-2	5	-3.4	-87%[inhibitor]	-4
O=C(C=Cc1ccco1)N1CCOCC1	9%	3	-5	-1.0	-47%[inhibitor]	-1
O=C(Nc1nc(-c2cccs2)cs1)c1cccc(S(=O)(=O)N2CCCCCC2)c1	-17%	-3	-4	-4.2	-14%	-31
Cc1ccc(NC(=O)CNCCCN2CCOCC2)cc1S(=O)(=O)N1CCCCC1	15%	1	-6	-3.2	3%	-21

# Reprinted at random: two compounds from above
compound	gsp antagonist	Six1-Eya2 blk	CtBP-E1A blk	D2 agonist	gsp ag	D2 potentiator
Cc1ccc2ccc(C(Nc3ccccn3)c3ccccc3)c(O)c2n1 (configuration not stated)	-10%	-2	-5	-8.5	-28%	-9
CC(C)CC(c1nnnn1CCc1ccccc1)N1CCC(C(N)=O)CC1 (configuration not stated)	-13%[15.4 µM]	8	-4	-2.8	0%	-6

# Next compounds:
compound	gsp antagonist	Six1-Eya2 blk	CtBP-E1A blk	D2 agonist	gsp ag	D2 potentiator
Cc1cccc(C(C)C)c1NC(=O)CN1C(=O)NC(Cc2ccccc2)C1=O (configuration not stated)	2%	-7	3	1.3	13%[15.4 µM]	-4
O=C(CSCc1cnn(-c2ccccc2)c1-n1cccc1)NCc1ccc2c(c1)OCO2	-11%	-9	-1	-2.6	15%	0
COc1ccc(C(=O)NC2CC(C)(C)NC(C)(C)C2)cc1S(=O)(=O)N1CCOCC1	·	1	3	-0.2	2%	-5
CC(C)C(=O)Nc1ccc(C(=O)N/N=C/C2CC3C=CC2C3)cc1 (configuration not stated)	8%	-5	-16	5.1	-11%	0
COc1cccc(NC(=O)CN(C)C(=O)Cc2ccc3c(c2)CCC3)c1	0%	-2	-4	-0.6	-4%	-19
COc1ccccc1CNC(=O)C1CCN(S(=O)(=O)c2ccc3nc4c(c(C(=O)O)c3c2)CCCC4)CC1	10%	?	?	-0.9	?	-10
COc1cc(-c2coc3c(C(=O)NCc4ccc(N(C)C)cc4)cccc23)ccc1O	·	?	?	?	·	6
CCc1nc2c(OCc3ccc(F)cc3)cccn2c1N(C)C(=O)CC(C)C	·	1	1	-1.7	·	0
CNC(=O)c1cc(S(=O)(=O)Nc2ccc(C)cc2C)ccc1C	-7%	5	-4	-2.3	-3%	3
CCc1n[nH]c(=S)n1/N=C/c1c(O)ccc2ccccc12	6%	3	·	-0.9	-29%	-29
Cc1ccc2nc(CNC(=O)C3CCC(=O)N(Cc4ccccc4F)C3)cn2c1 (configuration not stated)	10%	0	0	-3.2	9%	8
CCC(C)(C)c1ccc(Oc2cccc(C(=O)O)c2)cc1	-8%	-8	7	-5.8	16%	0
COc1cccc(N2C(=NC(=O)C3CCCCC3)SC3CS(=O)(=O)CC32)c1 (configuration not stated)	-4%	6	5	2.0	-6%	-5
CS(=O)(=O)N1CCC(C(=O)Nc2cccc(Br)c2)CC1	-2%	-6	-1	-4.5	31%[15.4 µM]	-10
COCCNC(=O)CSc1nc2ccccc2c2nc(C)nn12	7%	-4	-3	-3.1	?	11
Clc1ccccc1-c1nc(/C=N/N2CCOCC2)c2ccccn12	-7%	-16	-7	-1.0	-17%[15.4 µM]	-11
CCOC(=O)c1cc(C(=O)c2cccs2)n2ccc(C(C)=O)cc12	-3%	1	3	-3.5	?	-10
O=C(CSc1ccc2ccccc2n1)N/N=C/c1ccc(O)cc1	-15%	-1	·	-0.2	3%	-5
Cc1ccc(/C=C/C(=O)c2ccccc2O)cc1	11%	4	8	-1.4	21%[15.4 µM]	-4
CCN(CC)CCNC(=O)c1ccc(NC(=O)/C=C/c2ccc3ccccc3n2)cc1	6%	-2	-6	-0.1	3%	-1
O=C(COC(=O)COc1ccc(Cl)cc1)NC1CCCCCC1	-3%	2	6	-0.1	0%[15.4 µM]	-2
COc1ccc(C2/C=C\CN(CC(C)(C)C)CC(=O)N2Cc2ccc(F)cc2)cc1 (configuration not stated)	0%	22	0	3.8	·	-1
Cc1ccc(NC(=O)COC(=O)c2ccc([N+](=O)[O-])o2)cc1S(=O)(=O)N1CCCCCC1	9%	0	6	3.5	2%	10
CC(=O)N/C(=C\c1ccccc1)C(=O)OC(C)C(=O)N(C)c1ccccc1 (configuration not stated)	3%	1	-5	-3.2	11%[15.4 µM]	-1
COc1ccc(-c2cn(Cc3ccc4ccccc4c3)nn2)cc1	2%	12	-18	-3.0	-5%	-10
Cc1ccccc1CSCCNC(=O)CSCc1ccc([N+](=O)[O-])cc1	3%	-13	0	0.0	-34%[inhibitor]	-6
CC(C)(C)c1nnc(NC(=O)c2cccnc2)s1	-3%	17	·	8.2	-1%	-7
O=C(NCC1CCCO1)C(c1cccs1)N(Cc1ccccc1Cl)C(=O)c1ccc(-c2ccccc2)[nH]1 (configuration not stated)	?	-26	-9	-3.2	7%	-15
O=[N+]([O-])c1ccc(SCCc2ccccn2)cc1	5%	-20	-4	-3.4	-4%[15.4 µM]	-1
C[C@H]1CN([C@@H](C)CO)S(=O)(=O)c2ccc(Br)cc2O[C@H]1CN(C)C(=O)Cc1ccccn1	·	5	0	0.7	7%	-2
Cc1cccc(C)c1NC(=O)C1(NC(=O)Cn2cccc([N+](=O)[O-])c2=O)CCCCC1	7%	5	11	-0.6	-27%	11
CN(C1CCCCC1)S(=O)(=O)c1ccc(-n2cnnn2)cc1	3%	9	-4	1.4	-16%	-8
N/C(CN1CCCC1=O)=N\OC(=O)c1ccccc1Cl	7%	-1	2	5.3	3%	?
